Source: PubChem
FGF22 binding: FGF22 (human) thermal shift binding; recombinant FGF22 thermal shift, SYPRO orange fluorescence; percent of sucrose octasulfate shift, DMSO zero; AID 651658; calls only at 9.99 µM; Q9HCT0; 340,000 compounds, 1.5% hits;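 active = melting point raised past a set limit in the mean and every replicate; three in four hits are not shown here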
Target sequence (Q9HCT0 whole entry, looked up): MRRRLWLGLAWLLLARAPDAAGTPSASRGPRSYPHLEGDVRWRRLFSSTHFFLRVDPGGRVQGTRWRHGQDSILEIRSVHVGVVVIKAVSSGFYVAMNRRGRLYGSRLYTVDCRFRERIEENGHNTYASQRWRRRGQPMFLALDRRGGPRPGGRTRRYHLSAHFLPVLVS
Calls only; i = inactive; + = active, no number.

FGF22 binding | Compound
i | COCC(=O)Nc1ccc2c(c1)OC[C@@H](C)N(Cc1cccc(F)c1)C[C@@H](C)[C@@H](OC)CN(C)C2=O
i | CNC[C@H]1Oc2cc(C#CC3CCCC3)ccc2S(=O)(=O)N([C@H](C)CO)C[C@H]1C
i | CCNC(=O)[C@@H]1[C@@H](CO)[C@@H]2Cn3c(ccc(-c4ccncc4)c3=O)[C@H]1N2CC1CC1
i | C[C@@H]1CN([C@H](C)CO)C(=O)c2cccc(NC(=O)C3CCCCC3)c2O[C@H]1CN(C)Cc1ccc2c(c1)OCO2
i | COCC(=O)N1[C@@H](CO)[C@@H](c2ccccc2)C12CN(C(=O)c1ccccc1)C2
i | C[C@@H]1CN([C@@H](C)CO)C(=O)Cc2cc(NC(=O)C3CCCCC3)ccc2O[C@H]1CN(C)S(=O)(=O)c1cccs1
i | CO[C@@H]1CN(C)C(=O)c2ccc(NC(=O)c3cc(C)on3)cc2OC[C@H](C)NC[C@H]1C
i | C[C@@H]1CN([C@@H](C)CO)C(=O)c2cc(NC(=O)Cn3cnnn3)ccc2O[C@H]1CN(C)C(=O)Nc1ccccc1
i | COCc1cn(CC[C@@H]2CC[C@@H](NC(=O)Nc3ccc(F)cc3)[C@H](CO)O2)nn1
i | C[C@H](CO)N1C[C@H](C)[C@H](CN(C)S(=O)(=O)c2ccccc2)Oc2ccc(NS(=O)(=O)c3ccc(Cl)cc3)cc2CC1=O
i | O=C(C[C@H]1CC[C@@H](NC(=O)NC2CCCCC2)[C@@H](CO)O1)NCc1ccccc1
i | O=S(=O)(c1ccc(F)cc1)N1C[C@@H]2N[C@H](C1)C2c1ccc(/C=C/c2ccccc2)cc1 (stereo partly drawn)
i | C[C@@H]1CN([C@H](C)CO)C(=O)c2cc(NS(=O)(=O)c3ccc(F)cc3)ccc2O[C@H]1CN(C)S(=O)(=O)c1cn(C)cn1
i | C[C@@H]1CN([C@H](C)CO)S(=O)(=O)c2ccc(C#CCN(C)C)cc2O[C@@H]1CN(C)Cc1ccc2c(c1)OCO2
i | COc1ccc(NC(=O)N(C)C[C@@H]2Oc3c(NC(=O)c4cnccn4)cccc3C(=O)N([C@H](C)CO)C[C@@H]2C)cc1
i | CC(C)NC(=O)N(C)C[C@H]1OCCCC[C@H](C)Oc2ccc(NC(=O)Cc3ccccc3)cc2C(=O)N([C@@H](C)CO)C[C@@H]1C
i | O=C(Nc1ccccc1)N1C[C@@H]2[C@H](c3ccccc31)[C@@H](CO)N2Cc1ccccc1Cl
i | C[C@H]1CN([C@@H](C)CO)C(=O)c2cc(NC(=O)C3CCCCC3)ccc2O[C@H]1CN(C)Cc1ccccc1
i | CC(C)NC(=O)Nc1ccc2c(c1)C(=O)N([C@@H](C)CO)C[C@H](C)[C@@H](CN(C)C(=O)Nc1ccc3c(c1)OCO3)O2
i | C[C@@H]1CN([C@@H](C)CO)S(=O)(=O)c2ccc(-c3cccc(C(=O)N(C)C)c3)cc2O[C@@H]1CN(C)Cc1ccc2c(c1)OCO2

Given bar-delimited: part of the list above.
Structure | FGF22 binding
COCc1cn(CC[C@@H]2CC[C@@H](NC(=O)Nc3ccc(F)cc3)[C@H](CO)O2)nn1 | i
C[C@H](CO)N1C[C@H](C)[C@H](CN(C)S(=O)(=O)c2ccccc2)Oc2ccc(NS(=O)(=O)c3ccc(Cl)cc3)cc2CC1=O | i
C[C@@H]1CN([C@H](C)CO)C(=O)c2cccc(NC(=O)C3CCCCC3)c2O[C@H]1CN(C)Cc1ccc2c(c1)OCO2 | i
O=C(Nc1ccccc1)N1C[C@@H]2[C@H](c3ccccc31)[C@@H](CO)N2Cc1ccccc1Cl | i
CCNC(=O)[C@@H]1[C@@H](CO)[C@@H]2Cn3c(ccc(-c4ccncc4)c3=O)[C@H]1N2CC1CC1 | i

Next part
FGF22 binding | Compound
i | O=C(C1CCOCC1)N1CC[C@@H]2[C@@H](CO)Nc3ccc(Br)cc3[C@@H]21
i | C[C@@H]1CCCCO[C@@H](CN(C)S(=O)(=O)c2ccccc2)[C@@H](C)CN([C@@H](C)CO)C(=O)c2cc(NS(C)(=O)=O)ccc2O1
i | Cc1ccc(S(=O)(=O)N(C)C[C@H]2Oc3ccc(NS(=O)(=O)c4ccccc4)cc3C(=O)N([C@H](C)CO)C[C@H]2C)cc1
i | CO[C@@H]1CN(C)C(=O)c2ccc(NS(=O)(=O)c3cn(C)cn3)cc2OC[C@@H](C)NC[C@@H]1C
i | CCCNC(=O)Nc1ccc2c(c1)OC[C@@H](C)N(C(=O)c1ccccc1F)C[C@H](C)[C@H](OC)CN(C)C2=O
i | Cc1noc(C)c1S(=O)(=O)Nc1ccc2c(c1)C(=O)N([C@@H](C)CO)C[C@H](C)[C@@H](CN(C)Cc1ccc(Oc3ccccc3)cc1)O2
i | C[C@@H]1CN([C@H](C)CO)C(=O)c2cc(-c3ccccc3F)cnc2O[C@@H]1CN(C)Cc1cccc(C(=O)O)c1
i | C[C@H]1CN([C@@H](C)CO)C(=O)c2cc(-c3ccccc3F)cnc2O[C@H]1CN(C)Cc1ccc(F)cc1
i | O=C(C[C@H]1CC[C@@H]2[C@H](COC[C@H](O)CN2CCc2ccccc2)O1)N1CCC(Cc2ccccc2)CC1
i | C[C@@H]1CN([C@@H](C)CO)S(=O)(=O)c2ccc(C#Cc3cccnc3)cc2O[C@H]1CN(C)C(=O)Nc1ccc2c(c1)OCO2
i | C[C@@H]1CN([C@@H](C)CO)C(=O)c2cccc(NC(=O)CCCCCC(=O)Nc3ccccc3N)c2O[C@@H]1CN(C)C(=O)Nc1ccc(F)cc1
i | C[C@H]1CCCCO[C@@H](CN(C)S(=O)(=O)c2ccccc2)[C@@H](C)CN([C@@H](C)CO)C(=O)c2cc(NS(C)(=O)=O)ccc2O1
i | COc1ccccc1C(=O)Nc1ccc2c(c1)C(=O)N(C)C[C@H](OC)[C@@H](C)CN(C(C)=O)[C@@H](C)CO2
i | Cc1noc(C)c1S(=O)(=O)N(C)C[C@@H]1OCCCC[C@@H](C)Oc2ccc(NC(=O)CCC(F)(F)F)cc2C(=O)N([C@H](C)CO)C[C@H]1C
i | Cc1noc(C)c1S(=O)(=O)Nc1ccc2c(c1)C(=O)N([C@H](C)CO)C[C@@H](C)[C@H](CN(C)S(=O)(=O)c1cn(C)cn1)O2
i | NCC[C@@H]1CC[C@@H](NC(=O)C2CCC2)[C@H](CO)O1
i | COc1ccc(CN(C)C[C@@H]2OCCCC[C@@H](C)Oc3ccc(NC(=O)NC(C)C)cc3C(=O)N([C@@H](C)CO)C[C@@H]2C)cc1
i | C[C@H](CO)N1C[C@H](C)[C@@H](CN(C)C(=O)Nc2ccc(F)cc2)Oc2c(NS(=O)(=O)c3cn(C)cn3)cccc2C1=O
i | COc1cccc(S(=O)(=O)Nc2ccc3c(c2)C(=O)N(C)[C@H]2CC[C@H](CC(=O)O)O[C@H]2CO3)c1
i | Cc1noc(C)c1NC(=O)Nc1ccc2c(c1)C(=O)N([C@H](C)CO)C[C@H](C)[C@@H](CN(C)Cc1ccc(C(=O)O)cc1)OCCCC[C@H](C)O2

Entries from the list above that have two or more sulfur atoms, in the order listed:
FGF22 binding | Compound
i | C[C@@H]1CN([C@@H](C)CO)C(=O)Cc2cc(NC(=O)C3CCCCC3)ccc2O[C@H]1CN(C)S(=O)(=O)c1cccs1
i | C[C@H](CO)N1C[C@H](C)[C@H](CN(C)S(=O)(=O)c2ccccc2)Oc2ccc(NS(=O)(=O)c3ccc(Cl)cc3)cc2CC1=O
i | C[C@@H]1CN([C@H](C)CO)C(=O)c2cc(NS(=O)(=O)c3ccc(F)cc3)ccc2O[C@H]1CN(C)S(=O)(=O)c1cn(C)cn1
i | C[C@@H]1CCCCO[C@@H](CN(C)S(=O)(=O)c2ccccc2)[C@@H](C)CN([C@@H](C)CO)C(=O)c2cc(NS(C)(=O)=O)ccc2O1
i | Cc1ccc(S(=O)(=O)N(C)C[C@H]2Oc3ccc(NS(=O)(=O)c4ccccc4)cc3C(=O)N([C@H](C)CO)C[C@H]2C)cc1
i | C[C@H]1CCCCO[C@@H](CN(C)S(=O)(=O)c2ccccc2)[C@@H](C)CN([C@@H](C)CO)C(=O)c2cc(NS(C)(=O)=O)ccc2O1
i | Cc1noc(C)c1S(=O)(=O)Nc1ccc2c(c1)C(=O)N([C@H](C)CO)C[C@@H](C)[C@H](CN(C)S(=O)(=O)c1cn(C)cn1)O2

Carrying on.
FGF22 binding | Compound
i | COc1ccc(NC(=O)N(C)C[C@H]2Oc3ccc(NS(=O)(=O)c4cn(C)cn4)cc3CC(=O)N([C@@H](C)CO)C[C@@H]2C)cc1
i | Cc1noc(C)c1NC(=O)N(C)C[C@H]1OCCCC[C@H](C)Oc2ccc(N(C)C)cc2C(=O)N([C@H](C)CO)C[C@H]1C
i | Cc1noc(C)c1NC(=O)N(C)C[C@H]1Oc2ccc(NS(=O)(=O)c3ccccc3)cc2C(=O)N([C@@H](C)CO)C[C@H]1C
i | O=C(Nc1ccccc1)N1CCCCN2[C@@H](CO)[C@H](c3ccc(C#Cc4ccccc4)cc3)[C@@H]2C1
i | O=C(C[C@@H]1C[C@@H]2c3cc(NC(=O)C4CCOCC4)ccc3O[C@@H]2[C@H](CO)O1)NCCN1CCCCC1
i | COc1ccccc1NC(=O)N(C)C[C@@H]1Oc2cc(Br)ccc2S(=O)(=O)N([C@H](C)CO)C[C@H]1C
i | Cc1ccc(S(=O)(=O)Nc2cccc3c2O[C@@H](CN(C)C)[C@@H](C)CN([C@@H](C)CO)C3=O)cc1
i | C[C@@H]1CN([C@@H](C)CO)S(=O)(=O)c2ccc(/C=C/c3ccccc3)cc2O[C@@H]1CN(C)Cc1ccccc1
i | C[C@@H]1CN([C@H](C)CO)C(=O)c2cc(NS(=O)(=O)c3cccs3)ccc2O[C@@H](C)CCCCO[C@@H]1CN(C)CC1CC1
i | C[C@H](CO)N1C[C@H](C)[C@H](CN(C)C(=O)Nc2ccc(C(F)(F)F)cc2)Oc2ccc(NC(=O)CCN3CCOCC3)cc2CC1=O
i | C[C@H]1CN([C@@H](C)CO)C(=O)c2cc(NC(=O)C3CC3)ccc2O[C@@H]1CN(C)C
i | CN(C)C(=O)c1ccc(-c2ccc([C@@H]3[C@@H](CO)N4C(=O)CN(C(=O)CC5CC5)C[C@H]34)cc2)cc1
i | C[C@H]1CN([C@@H](C)CO)C(=O)c2cc(NC(=O)Nc3ccc(F)cc3)ccc2O[C@H]1CN(C)S(=O)(=O)c1cccs1
i | CN1C(=O)c2cc(NC(=O)c3cccc(F)c3)ccc2OC[C@H]2O[C@H](CC(=O)NCC3CC3)CC[C@@H]21
i | O=C(c1cccc(F)c1)N1C[C@@H]2[C@H](c3ccccc31)[C@@H](CO)N2C(=O)C1CCCCC1
i | COc1ccccc1-c1ccc2c(c1)O[C@@H](CN(C)C(=O)Nc1ccccc1)[C@H](C)CN([C@H](C)CO)S2(=O)=O
i | CNC(=O)C[C@H]1CC[C@@H]2[C@@H](COc3ccc(NC(=O)c4cccs4)cc3C(=O)N2C)O1
i | Cc1ccccc1S(=O)(=O)N1CCCCN2[C@H](CO)[C@H](c3ccc(-c4cccnc4)cc3)[C@@H]2C1
i | CN(C)C(=O)C[C@@H]1C[C@H]2c3cc(NC(=O)c4ccc5c(c4)OCO5)ccc3O[C@H]2[C@H](CO)O1
i | C[C@H]1CN([C@@H](C)CO)S(=O)(=O)c2ccc(-c3ccccc3F)cc2O[C@@H]1CN(C)S(C)(=O)=O
i | N#C[C@@H]1N[C@H](CO)[C@@H]1c1ccc(C#CC2CCCC2)cc1
i | C[C@@H]1CN([C@H](C)CO)S(=O)(=O)c2ccc(-c3cccc(C(=O)N(C)C)c3)cc2O[C@@H]1CN(C)C
i | COc1ccc(NC(=O)Nc2ccc3c(c2)CC(=O)N([C@@H](C)CO)C[C@@H](C)[C@H](CN(C)Cc2ccc(Cl)c(Cl)c2)O3)cc1
i | C[C@@H]1CN([C@@H](C)CO)C(=O)Cc2cc(NC(=O)Nc3ccc4c(c3)OCO4)ccc2O[C@@H]1CN(C)Cc1ccc(C(=O)Nc2ccccc2N)cc1
i | C[C@H](CO)N1C[C@H](C)[C@H](CN(C)S(C)(=O)=O)Oc2c(NS(=O)(=O)c3ccccc3)cccc2C1=O
i | Cc1ccc(S(=O)(=O)NCC[C@@H]2CC[C@@H](NC(=O)c3ccccn3)[C@H](CO)O2)cc1
i | C[C@H]1CN([C@@H](C)CO)C(=O)Cc2cc(NC(=O)Cn3cnnn3)ccc2O[C@H]1CN(C)C(=O)Nc1ccc(C(F)(F)F)cc1
i | CC(=O)N(C[C@H]1N[C@H](CO)[C@H]1c1ccc(-c2ccc(F)cc2)cc1)C(C)C
i | C[C@@H]1CN([C@H](C)CO)S(=O)(=O)c2ccc(C#Cc3ccc(F)cc3)cc2O[C@H]1CN(C)S(=O)(=O)c1ccc(F)cc1
i | C[C@@H]1CCCCO[C@@H](CN(C)S(=O)(=O)c2ccc(F)cc2)[C@@H](C)CN([C@@H](C)CO)C(=O)c2cc(NC(=O)Nc3ccc4c(c3)OCO4)ccc2O1
i | COc1cccc(S(=O)(=O)N(C)C[C@H]2Oc3cc(C4=CCCC4)ccc3S(=O)(=O)N([C@@H](C)CO)C[C@@H]2C)c1
+ | Cc1ccc(S(=O)(=O)N(C)C[C@@H]2Oc3cc(Br)ccc3S(=O)(=O)N([C@@H](C)CO)C[C@H]2C)cc1
i | CC(C)NC(=O)Nc1ccc2c(c1)C(=O)N([C@@H](C)CO)C[C@H](C)[C@H](CN(C)Cc1ccc3c(c1)OCO3)OCCCC[C@@H](C)O2
i | COc1ccc(S(=O)(=O)N[C@@H]2CC[C@H](CCn3cc(-c4ccccc4F)nn3)O[C@H]2CO)cc1
i | CCC(=O)Nc1ccc2c(c1)C(=O)N(C)C[C@H](OC)[C@@H](C)CN(CCc1ccccc1)[C@H](C)CO2
i | Cc1ccccc1S(=O)(=O)NCC[C@H]1CC[C@@H](NS(=O)(=O)c2ccccc2C)[C@H](CO)O1
i | CN(C[C@@H]1[C@H](c2ccccc2)[C@@H](CO)N1Cc1ccccn1)S(C)(=O)=O
i | C[C@@H]1CN([C@H](C)CO)C(=O)Cc2cc(NC(=O)c3ccncc3)ccc2O[C@@H]1CN(C)C(=O)NC1CCCCC1
i | COc1ccc(C#Cc2ccc3c(c2)O[C@H](CN(C)C(C)=O)[C@H](C)CN([C@H](C)CO)S3(=O)=O)cc1
i | CCC(=O)N(C)C[C@H]1Oc2cc(C#Cc3cccnc3)ccc2S(=O)(=O)N([C@H](C)CO)C[C@@H]1C
i | COc1ccc(NC(=O)N2C[C@H](O)COC[C@@H]3O[C@@H](CC(=O)NC4Cc5ccccc5C4)CC[C@H]32)cc1

These rows are one share of the data; count on the stated rates, not on these rows.
